# VACV Venus inh – vaccinia inhibition (Venus reporter) | AID 720580 | 0.46% of 330,000 active | Vaccinia virus Venus reporter expression, fluorescence | Potency, µM (series often up to 36.5 µM), without a hit: at the top dose activity change, negative = inhibition, actives largely listed as inhibitors; active means well fitted inhibition curve with a large enough effect; inconclusive means small, poorly fitted or top-dose-only effect; inactive means no such curve, though single readings can be large or run the other way; tested in A549 cells; note: nearly all actives have a fitted effect of over 30% in size; inactives centre near -10
# VACV mCherry inh – inhibitors of vaccinia virus infection (mCherry reporter signal). Vaccinia virus mCherry reporter infection, fluorescence; about a quarter of the inactives have no number. Potency, µM (titrated, usually from 36.5 µM), for the others: at the highest dose activity change, negative = inhibition, actives largely listed as inhibitors. 0.63% of 310,000 active. AID 720579; active = well fitted inhibition curve with a large enough effect; inconclusive = small, poorly fitted or top-dose-only effect; inactive = no such curve, though single readings can be large or run the other way; tested in A549 cells; note: nearly all actives have a fitted effect of over 35% in size; inactives centre near -10
# Active calls of the source: *; i = inactive; ? = inconclusive; nt = not tested or not shown; & = joins results of further samples; [ ] = remark or other dose. % is set by controls: 0 for no effect and ±100 for the full control effect; potency is the fitted concentration of half-maximal effect.
SMILES,VACV Venus inh,VACV mCherry inh
c1ccc2c(C(c3nnnn3-c3ccc4c(c3)OCCO4)N3CCCC3)ccnc2c1 (stereo not given),9.8%,i
CCc1nc(NCC(C)C)c(C#N)c2c1COC(C)(C)C2,-6.7%,-2.3%
CC(=O)N1CCN(C(C(=O)Nc2c(C)cccc2C)c2ccccc2OC(F)(F)F)CC1 (stereo not given),16.0%,2.3%
CC(=O)N1CCN(C(=O)c2ccc(C)c(S(=O)(=O)N3CCCCC3)c2)CC1,-11.0%,i
CN(CCOc1ccc(Br)cc1)CC(O)COc1ccc(C#N)cc1 (stereo not given),-20.1%,-25.4%
CCc1cccc(CC)c1NC(=O)CN1C(=O)C(=O)c2ccccc21,-3.3%,-11.1%
CN(C)c1ccc(C=C2C(=O)OC3(CCCC3)OC2=O)cc1,8.6%,i
Cc1cc(OC(C)C(=O)Nc2sc3c(c2C(N)=O)CCCC3)ccc1Cl (stereo not given),?,-23.3%
CN(C(=O)CCS(=O)(=O)c1cc2c(cc1Cl)NC(=O)CO2)C1CCCCC1,-18.2%&-1.5%,-4.6%&2.7%
CC(C)(C)c1ccc(-n2ncc3c2CCCC3NC(=O)CN2CCCCC2=O)cc1 (stereo not given),-17.2%,i
Cc1cccc(Cn2c(SCCN3CCOCC3)nc3c2c(=O)n(C)c(=O)n3C)c1,-10.3%,i
O=C(CN1C(=O)c2cccc3cccc1c23)N1CCN(c2ccccc2)CC1,-3.0%,-20.6%
CCn1c(SCC(=O)N/N=C/c2c[nH]c3ccccc23)nnc1-c1ccc(C)cc1,-17.5%,-18.4%
O=C(Oc1ccc2ccccc2c1Cl)N1CCCCCC1,-4.9%,-22.2%
CCOC(=O)N1C(=O)[C@@](c2ccc(Cl)cc2)(C(C)C)N1C(=O)OCC,12.6µM*,?

# 2 entries picked at random from the list so far, as already listed:
SMILES,VACV Venus inh,VACV mCherry inh
CN(CCOc1ccc(Br)cc1)CC(O)COc1ccc(C#N)cc1 (stereo not given),-20.1%,-25.4%
CC(=O)N1CCN(C(=O)c2ccc(C)c(S(=O)(=O)N3CCCCC3)c2)CC1,-11.0%,i

# The list goes on.
SMILES,VACV Venus inh,VACV mCherry inh
CCOC(=O)c1nc2nc(-c3cccs3)cc(C(F)(F)F)n2n1,-9.2%,-19.1%
Cc1ccc(CCC(=O)Nc2ncc(Cc3cc(Cl)ccc3Cl)s2)o1,4.47µM*,?
Cn1c(=O)c2c(-c3ccccc3Cl)n(-c3cc(Cl)ccc3O)cc2n(C)c1=O,-12.5%,-12.6%
COc1ccc(CNCc2ccc(C(=O)O)s2)cc1,0.2%,-7.4%
COc1ccc(-c2nnc(SCC(=O)Nc3ccccc3C)o2)cc1OC,-6.6%,-8.0%
CCCS(=O)(=O)NC(=O)C1(C)CCCN(C(=O)c2c(OC)cccc2OC)C1 (stereo not given),-13.8%,28.7%
O=C(COc1ccccc1Cl)NCCCNC(=O)c1ccccn1,-4.2%,34.7%[activator]
COCCN1CCN(Cc2cn[nH]c2-c2cc3ccccc3o2)CC1,-11.2%,-8.2%
COc1cccc(-n2c(=O)c3c4c(sc3n(Cc3ccc(F)cc3Cl)c2=O)CCCC4)c1,-18.3%,-23.9%
Nc1ncnc(Nc2ccc(F)cc2)n1,-13.3%,i
N#CCCn1cnc2ccccc21,-21.1%,nt
OC1CCN(Cc2ccc3ccccc3c2)CC1,-18.4%,-0.4%
CC(C)Oc1ccc(S(=O)(=O)N2CCOCC2)cc1NC(=O)c1cccc(S(=O)(=O)N2CCCC2)c1,-7.8%,-6.4%
Cn1c(CC(=O)Nc2ccccc2F)nnc1SCC(=O)N1CCOCC1,-11.9%,i
CC(=O)NCCNc1ccc([N+](=O)[O-])cc1C#N,-11.5%,i

# Two of these compounds in another layout.
CCOC(=O)c1nc2nc(-c3cccs3)cc(C(F)(F)F)n2n1
  VACV Venus inh: -9.2%
  VACV mCherry inh: -19.1%
Cc1ccc(CCC(=O)Nc2ncc(Cc3cc(Cl)ccc3Cl)s2)o1
  VACV Venus inh: 4.47µM*
  VACV mCherry inh: ?

# (cont.)
SMILES,VACV Venus inh,VACV mCherry inh
CCCCC(=O)N/N=C/c1ccc(N2CCOCC2)c([N+](=O)[O-])c1,-19.5%,-24.9%
Oc1ccc(C2Nc3cccc4cccc(c34)N2)c(O)c1,?,nt
O=C(NC1CCCC1)C1CC(=O)N(C2CCCCCCC2)C1 (stereo not given),-4.9%,-17.8%
CN(C(=O)Oc1ccc(Cl)c2cccnc12)c1ccccc1,-5.6%,-15.6%
CSc1nc(O)c(C(c2ccccc2Cl)c2c(O)nc(SC)[nH]c2=O)c(=O)[nH]1,4.9%,-4.2%
CN(C(=O)c1cccc(NC(=O)Cc2ccc(NC(=O)C3CCCN(S(=O)(=O)c4cccc([N+](=O)[O-])c4)C3)cc2)c1)C1CCCCC1 (stereo not given),-22.6%,?
CC1CCCCN1S(=O)(=O)c1ccc(C(=O)Nc2ccccc2-c2nc3ccccc3[nH]2)cc1 (stereo not given),-23.6%,i
O=C1OCCN/C1=C\C(=O)c1ccccc1,-4.2%,-12.6%
CCOc1ccc(-n2c(SCC(=O)Nc3cc(C)ccc3C)nc3c([nH]c4ccccc43)c2=O)cc1,-8.7%,-11.0%
CN(C)N=Nc1nc2c([nH]1)c(=O)n(C)c(=O)n2C,-3.6%,-47.9%
COCCNc1nnc(SCC(=O)Nc2cc(-c3ccccc3)nn2-c2ccccc2)s1,-4.5%,i
Cc1nnc2ccc(-c3ccc(NS(=O)(=O)c4ccccc4)cc3)nn12,-11.4%,i
CCOC(=O)C1C(=O)C(=O)N(Cc2ccccc2)C1C(=O)OCC (stereo not given),14.2%,-13.0%
Cc1ccc(-n2ncc3ccccc3c2=O)cc1Cl,-10.2%,i
COc1cccc(NC(=O)Cn2cc(C#N)c3ccccc32)c1,-1.2%,i
COC(=O)c1c(-c2cccs2)csc1NC(=O)c1ccc(Cl)cc1,1.8%,-4.4%
O=C(CCC(=O)Nc1ccccc1Cl)NN=C1CCCC1,-0.5%,i
CCCCCCC(=O)OCC(=O)c1ccc2c(c1)NC(=O)CO2,-11.0%,i
Cc1ccc(NC(=O)Cn2c(=O)n(-c3ccccc3)c(=O)c3c4c(sc32)CCCC4)cc1,-19.0%,-27.2%
COc1ccc2nc(-c3cccc(N)c3)[nH]c2c1,-24.8%,nt
Cn1c(N)c(C(=O)N2CCN(c3ccccc3)CC2)c(=O)n(C)c1=O,-3.1%,i
O=C(c1ccc(CS(=O)Cc2ccc(Cl)cc2)o1)N1CCN(c2cccc(Cl)c2)CC1 (stereo not given),-20.4%,-19.8%
O=C1CC(Nc2ccc(N3CCOCC3)cc2)C(=O)N1c1ccccc1F (stereo not given),-0.2%,-20.9%
COc1ccc(OC)c2[nH]c(=O)c(CCNC(=O)C3CCCCC3)cc12,?,nt
Cc1cccc(OCCSc2nc3ccccc3n2CC(=O)N2CCCCC2)c1C,-9.1%,-4.1%
COC(=O)c1cnn(-c2cc(Oc3cccc(C)c3)ncn2)c1N,-24.6%,nt
Clc1ccc(CN2CCCCCCC2)cc1,-1.9%,-7.7%
Cc1ccc(S(=O)(=O)N(C)c2ccc(C(=O)N3CCC(C(N)=O)CC3)cc2)cc1,-19.6%,nt
O=C(COC(=O)CCc1c[nH]c2ccccc12)Nc1ccc([N+](=O)[O-])cc1,-5.4%,-13.1%
CCc1noc(C)c1C(=O)Nc1nc2c(C)cccc2s1,-2.2%,i
COc1ccc(CNS(=O)(=O)c2ccc(-c3cc(C(F)(F)F)on3)s2)cc1OC,?,-14.8%
O=C(c1ccc(Cn2c(=S)[nH]c3ccc(Br)cc3c2=O)cc1)N1CCN(C2CCCCC2)CC1,-11.6%,-7.6%
CC(C)(C)N1C(=O)[C@H]2[C@@H](c3ccc(Br)cc3)N3C(=O)N(c4ccc(Br)cc4)C(=O)[C@@]3(Cc3ccccc3)[C@H]2C1=O,-14.0%,-11.8%
O=C(CNC(=S)N(Cc1ccccc1F)C1CCCCC1)NCCCN1CCOCC1,-8.9%,-23.2%
CC(=O)Nc1ccc2c(c1)NC(=O)CC2,-10.5%,-9.3%
C=CCn1c(=N)n(CC(=O)O)c2ccccc21,23.6%,nt
COCCNC(=O)c1cccc2c(-c3cnn(C)c3)coc12,-5.4%,35.3%[activator]
CCCCCCn1c(C(C)NC(=O)c2ccco2)nc2ccccc21 (stereo not given),-26.2%,nt
Cc1ccccc1CN(C)C(=O)COC(=O)c1ccc2[nH]c(C)c(C)c2c1,-24.5%,i
CCN(CC)S(=O)(=O)c1ccc(NC(=O)COC(=O)CCc2cc(OC)c(OC)c(OC)c2)cc1,-15.5%,i
O=C(/C=C/c1cccs1)N1CCc2ccccc21,-16.7%,-2.3%
O=C(CN1C(=O)NC2(CCCC2)C1=O)Nc1cc(C(F)(F)F)ccc1N1CCCCC1,-28.8%,?
COc1ccccc1Nc1cc(C(=O)NCc2cccs2)c2ccccc2n1,-9.9%,-17.1%
Cc1cccc(C(=O)NCCC(=O)Nc2ccc(C)c(F)c2)c1,-15.3%,-8.3%
COc1ccccc1S(=O)(=O)N(C)C[C@H]1OCc2cnnn2CCCC(=O)N([C@H](C)CO)C[C@@H]1C,-10.1%,i

# Part of the list above, with bars between the fields:
Compound | VACV Venus inh | VACV mCherry inh
CCn1c(SCC(=O)N/N=C/c2c[nH]c3ccccc23)nnc1-c1ccc(C)cc1 | -17.5% | -18.4%
O=C(Oc1ccc2ccccc2c1Cl)N1CCCCCC1 | -4.9% | -22.2%

# (more compounds)
SMILES,VACV Venus inh,VACV mCherry inh
CC1CCC2C(=O)N(c3ccc(C(=O)Oc4cccc5cccnc45)cc3)C(=O)C2C1 (stereo not given),?,?
CCOc1ccc(C(=O)O)cc1OC,2.5%,nt
CC1(OC(=O)CCc2ccccc2)C(=O)C=C2C=C(c3ccc(C#N)cc3)N(Cc3ccccc3)C=C2C1=O (stereo not given),-3.1%,16.5%
CN1CCN(C2=Cc3cc(Cl)ccc3Sc3cc(F)ccc32)CC1,?,?
CCC(CO)Oc1cc(NCc2ccc(C)c(C)c2)c2ncn(C(C)C)c2c1 (stereo not given),?,-24.7%
CCC(=O)c1ccc(OCC(=O)OCC(=O)Nc2cccc(S(=O)(=O)N3CCOCC3)c2)cc1,-10.0%,-15.7%
CCOc1ccc(N(Cc2cc3cc(C)ccc3[nH]c2=O)C(=O)c2cccc(Cl)c2)cc1,-14.3%,-10.8%
COC(=O)COc1ccc(C2C(C(=O)OC)=C(C)NC3=C2C(=O)c2ccccc23)cc1OC (stereo not given),-6.1%,-5.5%
CN1CCN(C(=O)c2ccccc2-c2nc(-c3ccccc3)no2)CC1,-28.4%,nt
Cc1ccc2nc(SCC(=O)OCc3ccccc3)nc(=O)n2c1,-23.4%,-11.3%
O=C(CCCN1C(=O)/C(=C/c2ccccc2Cl)SC1=S)NNC(=O)c1ccc(Cl)cc1Cl,-8.4%,-6.2%
CC/C=C/C(=O)N1CC2(CC(c3cccc(NC(=O)COc4ccc(Cl)cc4)c3)=NO2)C[C@H]1C(N)=O (stereo not given in full),?,?
COc1cc(/C=C2\C(=N)N3N=C(S(C)(=O)=O)SC3=NC2=O)cc(OC)c1OCCOc1cccc(C)c1,0.2%,-0.9%
O=C(COc1ccccc1[N+](=O)[O-])N(Cc1ccccc1)c1ccccn1,-13.1%,i
Cc1csc(NC(=O)c2c(-c3c(Cl)cccc3Cl)noc2C)n1,-26.0%,nt

# Continued; the last three above are carried over.
SMILES,VACV Venus inh,VACV mCherry inh
COc1cc(/C=C2\C(=N)N3N=C(S(C)(=O)=O)SC3=NC2=O)cc(OC)c1OCCOc1cccc(C)c1,0.2%,-0.9%
O=C(COc1ccccc1[N+](=O)[O-])N(Cc1ccccc1)c1ccccn1,-13.1%,i
Cc1csc(NC(=O)c2c(-c3c(Cl)cccc3Cl)noc2C)n1,-26.0%,nt
O=C(COc1ccc(F)c(Cl)c1)N1CCN(c2ccccn2)CC1,-13.3%,-8.7%
CCCOc1cccc(C(=O)Nc2cccnc2)c1,-12.5%,14.1µM*
COC(=O)c1ccc2nc(C3CCCCC3)c(CC(C)(C)C)n2c1,0.7%,i
Cc1nn(CC2CCCCC2)c(N)c1-c1ccccc1,-25.1%,nt
Cc1ccc(Nc2nc(-c3sc(NC(=O)c4ccco4)nc3C)cs2)cc1,-23.3%,-3.9%
CC1(C)CC(=O)C=C(c2cccs2)C1,-15.7%,i
COc1cccc(C2CC(=O)N(c3ccc(F)cc3)C3=C2C(=O)OC3)c1OC (stereo not given),3.1%,-6.5%
COc1ccccc1CNc1nc(NCc2ccccc2F)c2sccc2n1,-26.2%,-11.1%
O=C(Nc1ccc(S(=O)(=O)Nc2ccccn2)cc1)c1cccc([N+](=O)[O-])c1,-4.0%,-7.9%
Cc1ccc(-n2nc(C)c3c(C)cc(=O)n(CC(=O)NC(C)C)c32)cc1,6.6%,-6.1%
COc1ccc(N2C(=O)CC(N(Cc3ccc(S(N)(=O)=O)cc3)C(C)=O)C2=O)cc1 (stereo not given),-1.4%,nt
CCCn1c2c(c(O)c(C(=O)Nc3nc4ccccc4s3)c1=O)CCCC2,-8.1%,-0.8%
COCCCn1cnnc1SCC(=O)Nc1ccc(S(=O)(=O)N2CCCC2)cc1,-5.0%,i
CCc1cc(=O)oc2c(C)c(OC(C)C(=O)N3CC[C@@]4(O)CCCC[C@H]4C3)ccc12 (stereo not given in full),-1.9%,-2.9%
O=C(Nc1nc2c(s1)CCCC2)c1ccc(S(=O)(=O)N2CCCc3ccccc32)cc1,-26.1%,i
NC(COCc1ccccc1)c1csc(Nc2ccc(C(=O)c3ccccc3)cc2)n1 (stereo not given),-21.2%,-26.0%
COc1ccc(NC(=O)c2ccc(-c3ccc([N+](=O)[O-])cc3)o2)cc1,9.5%,-11.7%

# From PubChem BioAssay
